Screening data as filed in PubChem.
Autofluor counter = counter-screen for toxin protease inhibitors: compound fluorescence; hit rate 3.1% among 360,000; fluorescence intensity (no concentration beside the values); compound autofluorescence counterscreen, microsphere flow cytometry; hits give high values;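 active = at least 3 SD above the mean of all compounds, about 16000 in these data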;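 note: 100 nL of 1 mM stock went into each well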
Mtb hypoxia rep = reduces hypoxia-regulated biosensor signal in M. tuberculosis. M. tuberculosis hypoxia-regulated fluorescent reporter, fluorescence. fluorescence inhibition, % (test concentration not listed). hit rate 0.1% among 300,000. AID 1159583;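 active = 35 to 45% if threefold the growth effect, above 45% if 1.5-fold the growth effect; inactive = the rest, general growth blockers included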;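 note: wells of about 50 µL received 100 nL stock; 0% = vehicle wells and 100% = reference inhibitor wells; whole bacteria with a GFP reporter of the hypoxia response; strong numbers were not always called active; many hits fall short of the cut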
ugtP null kill = compounds lethal to S. aureus RN4220 ugtP deletion mutant | hit rate 0.54% among 330,000 | OD600 growth, 16 h; some inactives read as strong as hits | AID 1259309 | growth inhibition, % (concentration not given with the values);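 active = z-score under -3 and OD600 up to 0.15 on both plates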;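 note: plate controls were untreated wells for no effect and antibiotic for full effect; wells of about 80 µL received 100 nL stock; the first replicate is given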
PrP UTR inh = inhibition of PrP 5' UTR reporter expression. cell-based PrP 5' UTR mRNA reporter, plate reader. hit rate 0.35% among 340,000. inhibition, % (no concentration beside the values);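 active = every replicate at 50% or more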;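 note: 0 = median of the neutral control wells; tested in H4 reporter cells; numbers are from one replicate; inactives centre near -14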
RN4220 kill = kills Staphylococcus aureus RN4220. inhibition, % (test concentration not listed). AID 1259311. hit rate 0.33% among 330,000. S. aureus RN4220 growth, OD600, 16 h;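 active = z-score of -3 or lower and OD600 up to 0.18 on both plates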;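 note: plate controls were untreated cells for no effect and reference antibiotic for full effect; stock transfer was 100 nL into about 80 µL; one replicate is shown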
BJeLR viability = BJeLR cell viability loss; BJeLR (HRASV12) viability, CellTiter-Glo ATP luminescence, 48 h; reference of the scale not given here; inhibition, % (no concentration beside the values); hit rate 0.17% among 300,000; AID 1554;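 active = replicate mean above 50%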;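 note: 50 nL library stock added to about 25 µL; numbers are from one replicate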
Mtb hypoxia rep growth = further read-out of Mtb hypoxia rep, marked with its call; growth inhibition, %; measured here: M. tuberculosis growth (absorbance);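 0% = vehicle and 100% = reference antibiotic; read after six days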
Starred values were filed as active, the others as inactive; . = not tested or not shown.

# | smiles | Autofluor counter | Mtb hypoxia rep | ugtP null kill | Mtb hypoxia rep growth | PrP UTR inh | RN4220 kill | BJeLR viability
1 | CC1(C)OC(=O)C=C[C@]2(C)[C@H]3CC[C@@]4(C)[C@H](C(=O)O)OC(=O)[C@H]5O[C@]54[C@]3(C)C(=O)C[C@@H]12 | 3818 | 8 | -5 | 4 | -14 | -10 | .
2 | COc1ccc(C(=O)C2CCCN(C(=O)c3cc(C(C)C)no3)C2)cc1F (stereo unspecified) | 2584 | 13 | 7 | 12 | -30 | 4.0 | 3
3 | COc1ccccc1CN1C(=O)CN(C2CCCC2)C(=O)C1c1ccc(F)cc1 (stereo unspecified) | 16593* | -2 | -9 | -1 | 36 | 0.2 | -6
4 | CC(NC(=O)c1ccccc1Cl)C(=O)N1CCN(Cc2ccc3c(c2)OCO3)CC1 (stereo unspecified) | 3637 | -2 | 3 | 1 | -12 | 0.3 | .
5 | O=C(CC1NCCNC1=O)Nc1ccc([N+](=O)[O-])cc1 (stereo unspecified) | 4523 | 3 | 8 | 14 | -18 | 6.9 | -11
6 | CCc1ccc(N(CC(=O)NCc2ccc(OC)cc2)C(=O)CCC(=O)Nc2ccccn2)cc1 | 5822 | 7 | -1 | 5 | -5 | 2.3 | -8
7 | COc1cccc(OC)c1C(=O)NC(=S)Nc1cccc(NC(=O)c2ccco2)c1 | 4153 | 0 | 13 | 2 | -14 | 4.4 | -10
8 | Cc1nn(-c2ccccc2)c(Cl)c1C=NNc1ccc(Cl)c(C(=O)O)c1 | . | -8 | 0 | -10 | . | 10 | .
9 | Cc1nn(-c2ccccc2)c(C)c1C(=O)OCC(=O)N1c2ccccc2NC(=O)C1(C)C | 2346 | 15 | -6 | 3 | -11 | -14 | -12
10 | Cc1cc([N+](=O)[O-])c(C)cc1-c1ccc(/C=N/NC(=O)Cn2nnnc2N)o1 | 5160 | . | . | . | -20 | . | -1
11 | COc1ccc2c(c1OC)C(=O)N(c1cccc(NC(C)=O)c1)C2 | 3087 | -16 | 4 | -13 | 0 | 4.9 | -3
12 | Cc1sc2ncn(CC(=O)N3CCC(C(N)=O)CC3)c(=O)c2c1S(=O)(=O)N1CC(C)CC(C)C1 (stereo unspecified) | 5828 | 5 | 6 | -2 | -12 | 3.9 | 10
13 | CNC(=O)CN(c1cc(C)ccc1C)S(C)(=O)=O | 4610 | -1 | 1 | 6 | -2 | 2.6 | -10
14 | CC(=O)OC(C)(CCC(C)(OC(C)=O)C(C)=O)C(C)=O (stereo unspecified) | 2911 | -8 | 16 | -4 | -21 | 18 | -4
15 | CNC(=S)N(Cc1cc2ccc(OC)cc2[nH]c1=O)CC1CCCO1 (stereo unspecified) | 3296 | -4 | 5 | -2 | -9 | 11 | 5
16 | Cc1ccc(-n2ccc(=O)c(C(=O)Nc3ccc(S(=O)(=O)N4CCOCC4)cc3)n2)cc1 | 5593 | -2 | -2 | 7 | -13 | -0.9 | -9
17 | NC(=O)c1sc2nc(-c3ccccc3)ccc2c1N | 4010 | 12 | 6 | 10 | -47 | 2.3 | -6
18 | Cc1ccc(N(CC(=O)NCC2CCCO2)C(=O)CCC(=O)Nc2ccccn2)cc1C (stereo unspecified) | 2726 | . | 3 | . | -13 | 4.3 | 12
19 | Cc1ccc(S(=O)(=O)NCC(=O)OCCOc2cccc(Cl)c2)cc1 | 3998 | 2 | 1 | 3 | -26 | 8.8 | .
20 | COc1ccc2nc(SCc3cccnc3)c(C#N)cc2c1 | 3473 | 6 | 1 | 5 | -22 | 5.3 | 5
21 | O=C(NCc1ccccc1)C12CN(Cc3ccccc3)CC1C(c1cccc([N+](=O)[O-])c1)=NO2 (stereo unspecified) | 4028 | -1 | 0 | 11 | 0 | -2.2 | 1
22 | O=C(COC(=O)c1ccccc1[N+](=O)[O-])NNC(=O)c1cccs1 | 6670 | 4 | 11 | 4 | -14 | 1.7 | -1
23 | COc1cccc(C(=O)NC(=S)Nc2ccccc2N2CCCCC2)c1 | 5412 | -4 | 89* | -1 | -20 | -7.1 | -4
24 | CCNC(=S)NN=C(C)c1ccc2ccccc2c1OC(F)F | . | -4 | 1 | 2 | . | 7.6 | .
25 | CC(C)(C)NC(=O)C1CCC(C)(C(=O)O)C1(C)C (stereo unspecified) | 15809 | -2 | 0 | 8 | -9 | -1.7 | 8
26 | O=C(CSc1ccccc1C(=O)O)c1ccc([N+](=O)[O-])cc1 | 2473 | 13 | 1 | 14 | -11 | 3.6 | -2
27 | CC1=C(C(=O)Nc2ccccc2)C(c2ccco2)C(C#N)=C(SCC(=O)OC(C)C)N1 (stereo unspecified) | 8386 | 1 | 4 | 12 | -46 | 3.2 | -1
28 | COC(=O)C1=C(c2ccccc2OCc2ccccc2)CC2CCC1N2C(=O)NCCCOC(C)C (stereo unspecified) | . | 10 | 7 | -2 | . | 7.4 | .
29 | CCc1ccc(NS(=O)(=O)c2ccc(OC)c(C)c2)cc1 | 11693 | 2 | 1 | 5 | -20 | 1.7 | -1
30 | Cc1ccc2c(c1)c(Sc1ccccc1)c(CC(=O)O)n2C | 8929 | 6 | -10 | -2 | -22 | 11 | -18
31 | NS(=O)(=O)c1ccc(N=Cc2c(O)c3ccccc3oc2=O)cc1 | 3773 | . | . | . | -28 | . | -6
32 | COc1ccc(OC)c(CN2CCN(Cc3cccc4ccccc34)CC2)c1 | 4184 | 0 | 2 | -1 | -22 | -2.1 | 3
33 | Cn1nnnc1SCC(=O)N1CCN(Cc2ccccc2)CC1 | 19771* | -3 | 9 | 0 | -21 | 4.8 | 3
34 | O=C(CCN1C(=O)[C@@H]2Cc3ccccc3CN2C1=O)N[C@H](C(=O)O)c1ccccc1 | 5616 | 14 | 9 | -1 | -15 | 3.7 | 6
35 | CN1CCN(C(=O)c2ccccc2NC(=O)C(C)(C)C)CC1 | 3047 | 6 | 0 | -5 | -19 | -0.8 | -1
36 | Cc1cc(C)c2cc(C=O)c(Cl)nc2c1 | 3551 | 9 | 6 | 6 | -22 | -4.2 | .
37 | OC1c2cc(Br)ccc2N=C2CCCN21 (stereo unspecified) | 3923 | 19 | 9 | 4 | -5 | 5.0 | 12
38 | COc1ccc(C(=O)Nc2nnc(SCC(=O)NCc3ccco3)s2)cc1OC | 4731 | 6 | 8 | -1 | 14 | 0.5 | -6
39 | O=[N+]([O-])c1cc([N+](=O)[O-])c(Oc2c(F)cccc2F)cc1NN1CCCCC1 | 3410 | 11 | 12 | 11 | -1 | -1.6 | 8
40 | O=C(CNC(=O)C12CC3CC(CC(C3)C1)C2)NC1=NCCS1 | 8133 | 12 | 3 | 4 | -12 | 7.3 | 0
41 | O=C(CCNC(=O)c1ccc(Cl)cc1)NCC(c1ccco1)N1CCCCC1 (stereo unspecified) | 4736 | 8 | 6 | 0 | -10 | 2.1 | 1
42 | Cc1cc(C)c(C#N)c(SCCS(=O)(=O)Cc2ccccc2)n1 | 7390 | 3 | 8 | 1 | -44 | 7.0 | 3
43 | O=C1CC(N2CCN(S(=O)(=O)c3ccccc3F)CC2)C(=O)N1c1ccc(F)cc1F (stereo unspecified) | 3710 | -2 | -3 | 1 | -16 | 1.0 | .
44 | Cn1cc([N+](=O)[O-])c(C(=O)N/N=C/c2ccc([N+](=O)[O-])cc2)n1 | 2062 | . | . | . | -14 | . | 2
45 | O=C(/C=C/c1ccc(F)cc1)NCc1cccs1 | 2471 | 13 | 10 | 6 | -37 | -1.0 | -10
46 | C=CCN1C(=O)c2ccc(C(=O)OCC(=O)N3CCN(c4ccccc4)CC3)cc2C1=O | 6433 | -4 | 0 | 7 | -13 | 1.9 | 0
47 | CC(C)(C)N=C1C([N+](=O)[O-])=CC=C2C1=NC1(CCCCC1)N2O | 2132 | 4 | -3 | 11 | -5 | 0.1 | -9
48 | Cc1ccc(S(=O)(=O)Nc2c(C)nc3nc(C)[nH]n3c2=O)cc1 | 2931 | 8 | 10 | 0 | -11 | 4.5 | -8
49 | CC(=O)N1CCN(Cc2nc3cc(NC(=O)COc4cccc(C)c4)ccc3n2C)CC1 | 3025 | 1 | 9 | 1 | -22 | 1.9 | 9
50 | CC(C)CC(=O)N1CC=CCC(c2ccc(Cl)cc2)N(Cc2ccc(Cl)cc2)C(=O)C1Cc1ccccc1 (stereo unspecified) | . | 8 | -4 | 1 | . | -9.2 | .
51 | COc1ccccc1CNC(=O)C1CCN(S(=O)(=O)c2ccc3c(c2)CC(C)N3C(=O)C2CC2)CC1 (stereo unspecified) | 5928 | 9 | 2 | -1 | -22 | -1.9 | -3
52 | CC(C)CCN1CCNC(=O)C1CC(=O)N(C)CCCN1CCOCC1 (stereo unspecified) | 4592 | 8 | 10 | 8 | -12 | -1.7 | 5
53 | CCOC(=O)CCn1c(CC(=O)OCC)nc2ccccc21 | 9647 | 5 | -1 | 7 | -4 | 6.0 | 8
54 | COc1ccccc1CN(Cc1cccnc1)S(=O)(=O)c1ccc(-n2cnnn2)c(OC)c1 | 5581 | 6 | 7 | 3 | -30 | 9.8 | -9
55 | CC(C)(C)c1cc(CN2CCN(CCO)CC2)cc(C(C)(C)C)c1O | 9579 | 1 | 6 | 1 | -21 | 5.8 | -6
56 | C=CCNC(=O)CCNS(=O)(=O)c1ccc(Br)cc1 | 22875* | 7 | 4 | -6 | -10 | -0.3 | .
57 | O=C(CNC(=O)CNC(=O)c1ccc(Cl)cc1Cl)NCc1cccc(Cl)c1 | 3945 | 11 | 1 | 2 | -4 | 0.6 | -6
58 | COc1ccc(N(C(=O)c2csnn2)C(C(=O)NC2CCCC2)c2cccs2)cc1 (stereo unspecified) | 5259 | 8 | 1 | 9 | -9 | 1.0 | -6
59 | O=[N+]([O-])/C=C/c1c(OCc2ccccc2)ccc2ccccc12 | 2092 | . | . | . | -73 | . | 81*
60 | Cc1cc2ncn(CC(O)COC3CCCCC3)c2cc1C (stereo unspecified) | 2884 | 19 | -5 | 13 | -21 | -6.3 | -1

Compound profiles, from the list above.
`CC(C)CC(=O)N1CC=CCC(c2ccc(Cl)cc2)N(Cc2ccc(Cl)cc2)C(=O)C1Cc1ccccc1` (stereo unspecified) in the list: Autofluor counter: .; Mtb hypoxia rep: 8; ugtP null kill: -4; Mtb hypoxia rep growth: 1; PrP UTR inh: .; RN4220 kill: -9.2; BJeLR viability: .
`O=[N+]([O-])c1cc([N+](=O)[O-])c(Oc2c(F)cccc2F)cc1NN1CCCCC1` in the list: Autofluor counter: 3410; Mtb hypoxia rep: 11; ugtP null kill: 12; Mtb hypoxia rep growth: 11; PrP UTR inh: -1; RN4220 kill: -1.6; BJeLR viability: 8

New compounds follow
# | smiles | Autofluor counter | Mtb hypoxia rep | ugtP null kill | Mtb hypoxia rep growth | PrP UTR inh | RN4220 kill | BJeLR viability
61 | CCOC(=O)Cn1cc(C=C2C(=O)N(C)C(=O)N(C)C2=O)c2ccccc21 | 3338 | . | . | . | -2 | . | -6
62 | O=C(NCCN1CCOCC1)c1ccc(CS(=O)(=O)Cc2ccccc2F)o1 | 3016 | . | 1 | . | -24 | -17 | 4
63 | CC1CCCCN1C(=O)Cn1c(=O)oc2cc(S(=O)(=O)N3CCCC3)ccc21 (stereo unspecified) | 4291 | 8 | 8 | 8 | -16 | -2.5 | 2
64 | COc1ccc(C=Nn2c(C)nnc2C)c(OC)c1OC | . | 10 | 9 | 2 | . | 10 | .

Structures listed so far that contain fluorine:
# | smiles | Autofluor counter | Mtb hypoxia rep | ugtP null kill | Mtb hypoxia rep growth | PrP UTR inh | RN4220 kill | BJeLR viability
2 | COc1ccc(C(=O)C2CCCN(C(=O)c3cc(C(C)C)no3)C2)cc1F (stereo unspecified) | 2584 | 13 | 7 | 12 | -30 | 4.0 | 3
3 | COc1ccccc1CN1C(=O)CN(C2CCCC2)C(=O)C1c1ccc(F)cc1 (stereo unspecified) | 16593* | -2 | -9 | -1 | 36 | 0.2 | -6
24 | CCNC(=S)NN=C(C)c1ccc2ccccc2c1OC(F)F | . | -4 | 1 | 2 | . | 7.6 | .
39 | O=[N+]([O-])c1cc([N+](=O)[O-])c(Oc2c(F)cccc2F)cc1NN1CCCCC1 | 3410 | 11 | 12 | 11 | -1 | -1.6 | 8
43 | O=C1CC(N2CCN(S(=O)(=O)c3ccccc3F)CC2)C(=O)N1c1ccc(F)cc1F (stereo unspecified) | 3710 | -2 | -3 | 1 | -16 | 1.0 | .
45 | O=C(/C=C/c1ccc(F)cc1)NCc1cccs1 | 2471 | 13 | 10 | 6 | -37 | -1.0 | -10
62 | O=C(NCCN1CCOCC1)c1ccc(CS(=O)(=O)Cc2ccccc2F)o1 | 3016 | . | 1 | . | -24 | -17 | 4
